Screening data as filed in PubChem.
LANA-H2A inh: blocks KSHV LANA binding to histone H2A/H2B; cell-free LANA-H2A/H2B peptide, fluorescence polarization; inhibition, % (test concentration not listed); actives 0.6% (n = 320,000); AID 2629; in the data active = inhibition mostly above about 10%, no sharp cut-off; inactive = mostly below about 6.7%;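 note: stock transfer was 7.5 nL into about 10 µL; 0% = median of vehicle wells and 100% = median of positive control wells; one replicate is shown; the record names a cut of 25% in any replicate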
T cruzi repl: blocks replication of Trypanosoma cruzi; T. cruzi beta-gal in NIH3T3, luminescence, 90 h; inhibition, % (concentration not given with the values); actives 1.4% (n = 300,000);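 active = mean inhibition across valid replicates above about 55%, limit read from the data; inconclusive = mean below that limit but half or more replicates reach it; inactive = mean below it, under half of replicates reach it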;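 note: signal also drops with host cell toxicity which is not excluded here; 0% = plate median of DMSO wells and 100% = zero luminescence signal; higher percent means less beta-gal luminescence so fewer parasites; stock transfer was 50 nL into about 50 µL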
Calb FLC: affects C. albicans growth with fluconazole; C. albicans CaCi-2 (fluconazole-resistant clinical isolate) + fluconazole, Alamar Blue growth, 48 h; growth inhibition, % (concentration not given with the values); actives 0.57% (n = 300,000);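 active = most replicates above 75%; inconclusive = exactly half above 75%; inactive = most below 75%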;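 note: all wells also contain fluconazole at 8 µg/ml as a sub-toxic cotreatment; 0% = median of DMSO wells and 100% = median of geldanamycin control wells; wells of about 8 µL received 7.5 nL stock; the first replicate is given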
Bfl-1 A1 inh: inhibitors of the anti-apoptotic protein A1, read as caspase activation. caspase activation, % (no concentration beside the values). actives 0.066% (n = 330,000). MEF A1-2A-BIM cells, Caspase-Glo 3/7 luminescence, 3 h; percent of clofoctol response, vehicle zero. AID 2462;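 active = over half of replicate activation scores above 10%, or exactly half above 10 with the replicate mean above 10; inconclusive = replicate mean below 10 yet half the replicates above 10; inactive = over half of replicates below 10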;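 note: wells of about 30 µL received 50 nL stock; many hits fall short of the cut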
Vif A3G: HIV-1 Vif–A3G interaction blockers – biochemical, TR-FRET, GST-Vif 1-94, biotin-A3G peptide, dose response retest, primary screen (AID 1117319); actives 0.57% (n = 260,000); TR-FRET GST-Vif / biotin-A3G peptide binding; higher % means a stronger effect; test concentration not given here; strong numbers were not always called active; inhibition, %, or IC50 in µM where a hit was titrated;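 active = above the screen mean plus three standard deviations and confirmed in dose response; inconclusive = results disagree or hit not tested in dose response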;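 note: Vif residues 1-94 fused to GST binding biotinylated APOBEC3G peptide 110-148; 0% = full assay without inhibitor and 100% = GST in place of GST-Vif; retest series ran down from 100 µM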
Beta apoptosis: blocks beta cell apoptosis; protection from apoptosis, % (concentration not given with the values); actives 0.8% (n = 300,000); INS-1E cytokine-induced death, ATP luminescence, 48 h; percent of positive-control rescue, neutral wells zero;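 active = all replicates at 75% or more, or half of them and the mean; inconclusive = half reach 75% but not the mean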;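 note: 0% = cytokine-treated negative control wells and 100% = positive control rescue; higher means more ATP so stronger rescue from cytokine killing; wells of about 40 µL received 100 nL stock; the first replicate is given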
RanGTP-Imp inh: disruptors of Ran-importin-beta complex formation – biochemical, FRET, CFP-Ran, YFP-importin-beta, homogeneous, primary screen; AID 2216; inhibition, % (concentration not given with the values); cell-free CFP-Ran/YFP-importin-beta FRET ratio; actives 1.1% (n = 300,000);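 active = most replicates above 15%; inconclusive = exactly half above 15%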;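 note: 0% = DMSO wells and 100% = Ran loaded with GDP instead of GTP; wells of about 40 µL received 100 nL stock; the first replicate is given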
MLL AF4-AF9 inh: blocks AF4 peptide binding to human AF9; P42568; AlphaScreen, biotin-AF4 peptide binding to FLAG-AF9; inhibition, % at 10 µM; actives 0.47% (n = 350,000); AID 651704;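 active = every replicate reaching a set inhibition limit, whatever the replicate mean, cut at about 25% in these data; inconclusive = mean inhibition reaches that limit but some replicates miss it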;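 note: 0% = plate neutral control median and 100% = total signal loss; the record names both 10 and 1 µM as test concentration; the first replicate is given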
Target sequence (P42568 whole entry, looked up): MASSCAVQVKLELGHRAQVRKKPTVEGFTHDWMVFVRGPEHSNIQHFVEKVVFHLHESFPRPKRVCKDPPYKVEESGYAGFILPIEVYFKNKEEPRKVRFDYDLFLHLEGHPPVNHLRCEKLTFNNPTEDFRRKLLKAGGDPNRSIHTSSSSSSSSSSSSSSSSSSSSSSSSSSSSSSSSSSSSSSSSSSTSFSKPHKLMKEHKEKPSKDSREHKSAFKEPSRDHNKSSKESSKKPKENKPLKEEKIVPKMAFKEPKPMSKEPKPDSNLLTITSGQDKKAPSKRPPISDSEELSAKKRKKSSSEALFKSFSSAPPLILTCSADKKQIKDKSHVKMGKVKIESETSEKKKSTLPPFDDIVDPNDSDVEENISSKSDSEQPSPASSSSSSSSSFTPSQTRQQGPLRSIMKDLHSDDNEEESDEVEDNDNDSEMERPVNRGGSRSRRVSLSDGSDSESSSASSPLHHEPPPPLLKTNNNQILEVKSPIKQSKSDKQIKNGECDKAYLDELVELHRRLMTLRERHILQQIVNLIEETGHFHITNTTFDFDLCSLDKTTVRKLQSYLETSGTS
An asterisk follows results filed as active; u = inconclusive; x = no result given. Rows are unselected, and some 4.3% of all compounds hit somewhere here.

compound	LANA-H2A inh	T cruzi repl	Calb FLC	Bfl-1 A1 inh	Vif A3G	Beta apoptosis	RanGTP-Imp inh	MLL AF4-AF9 inh
O=C(/C=C/c1cccs1)N1CCC2(CC1)Oc1ccc(F)cc1C(=O)C21CC(c2ccc(Cl)cc2)=NO1 (stereo not drawn)	-6.0	23	0	-0.5	x	5	-1.5	x
Cc1ccc(CSc2cc(C)[nH]c(=O)n2)cc1	-2.9	-4	-3	0.0	x	x	0.3	-1.5
COCCCn1c(=O)c2sccc2n2c(CCCC(=O)N(C)Cc3ccco3)nnc12	4.2	-6	-2	-0.3	x	3	u	-8.7
CCCC/C(O)=N\S(=O)(=O)c1ccc(N=NN(C)C)cc1	-0.2	1	-1	-1.0	8%	-1	3.6	x
COCCOC(=O)c1c(NC(=O)CSc2cccc[n+]2[O-])sc(C(N)=O)c1C	-3.7	-20	-5	-1.0	7%	-3	-0.2	-2.2
CC(C)C(C)NC(=O)COc1ccc(OCc2ccccc2)cc1 (stereo not drawn)	0.2	-7	-5	-0.2	22%	-1	1.0	-2.9
COc1ccc(S(=O)(=O)c2c(O)c3ccc(C(=O)Nc4ccc(F)cc4F)cc3[nH]c2=O)cc1	-1.8	-7	-7	-0.3	2%	x	1.2	-0.7
Cc1ccc(C2=C(c3ccc([N+](=O)[O-])cc3)C(=O)OC2)cc1C	2.4	-1	-5	0.7	8%	12	-1.6	8.3
CCOC(=O)N1CCN(Cc2nc(Cc3cccc(C(F)(F)F)c3)no2)CC1	0.5	-17	-8	0.6	x	-2	-2.3	-1.2
CC(=O)c1ccc(NC(=S)NC(C)c2ccc(Cl)cc2Cl)cc1 (stereo not drawn)	-2.0	13	-3	-0.1	u	u	-0.5	-7.5
CCS(=O)(=O)c1nc2ccccc2n1Cc1ccccn1	2.8	-15	19	u	1%	-3	4.8	0.1
CC(C)Sc1nc2ccc(N3C(=O)C4CCCCC4C3=O)cc2s1 (stereo not drawn)	3.9	0	19	-0.1	x	-11	-3.6	1.4
CCSc1nnc(Cn2c(=O)sc3ccccc32)n1C	5.1	-1	-2	-0.2	17%	-1	2.6	-1.8
CCCNC(=O)c1cnc(Sc2ncc(C(F)(F)F)cc2Cl)n1C	-2.6	8	-16	-1.9	14%	5	4.5	x
O=C(CSc1ccc(-c2ccncc2)nn1)N1CCCC1	1.9	-3	3	0.0	3%	-4	1.0	-2.3
O=C(COc1ccc(Cl)cc1)NCc1cn2cc(Cl)ccc2n1	-6.2	4	-11	1.6	5%	-2	6.0	-3.1
Cc1cccc(C)c1N(CC(=O)NCc1ccco1)C(=O)CNS(=O)(=O)c1ccc(F)cc1	-3.5	2	7	-0.5	-11%	3	-2.3	3.3
N#C/C(=C\c1cccs1)C(=O)NCc1ccco1	5.7	8	-2	0.2	-7%	-4	4.7	-0.7
COc1ccc(Cc2noc(CN(C)C3CC(C)(C)NC(C)(C)C3)n2)cc1OC	-0.8	-7	-6	-0.6	3%	0	0.2	-6.8
CCCCNC(=S)NNC(=O)c1cc(C2CC2)nc2ccccc12	-4.0	-16	35	-0.5	x	-1	0.4	1.9
CCN(CC)c1ccc(C2NCC(c3ccc([N+](=O)[O-])cc3)O2)cc1 (stereo not drawn)	-0.3	-1	-8	-0.1	4%	-4	6.4	x
CCc1cccc(C)c1NC(=O)c1cccc(N(C)C)c1	-0.8	16	u	-0.2	2%	-24	-1.6	x
O=C(c1ccc(Cl)cc1)c1c[nH]cc1-c1ccccc1	-0.4	-4	-8	-0.2	10%	-3	-5.1	x
O=C(Nc1ccc(S(=O)(=O)N2CCCCC2)cc1)C1CC(=O)N(c2ccccc2)C1 (stereo not drawn)	2.9	-22	2	-0.6	2%	5	-0.3	1.5
CCOc1cc(/C=N/NC(=O)c2ccccc2-n2cccc2)ccc1O	-6.5	x	x	0.2	-6%	8	x	3.7
CN(C)C=Nc1ccc(Cl)c(Cl)c1	2.3	-9	-18	-0.7	-4%	1	-1.0	-0.4
COc1c(C)cc(C(=O)C2CCCN(S(=O)(=O)c3c(C)noc3C)C2)cc1C (stereo not drawn)	3.6	-14	25	1.2	x	-9	u	-3.1
O=C1CN(C(=O)COC(=O)/C=C/c2ccc(F)cc2)c2ccccc2N1	-2.3	x	x	0.9	-5%	5	x	-0.5
CCOC(=O)N1CCC(NC(=O)C(Cc2ccccc2)NC(=O)C2CCCCC2)CC1 (stereo not drawn)	-3.4	-12	16	1.4	-6%	-8	2.2	x
CCN1C(=NCCCCO)N[C@@H](c2cccc(C(F)(F)F)c2)C(C(=O)OC)=C1C	-0.8	-2	11	0.9	x	-9	u	0.2
O=C(COC(=O)CNS(=O)(=O)c1c(Cl)cccc1Cl)Nc1cccnc1Cl	-2.1	-11	-10	0.5	5%	x	u	x
CC(=O)c1c(C)[nH]c(C(=O)NCc2ccc(C)cc2)c1C	-0.6	-6	0	-4.4	-6%	2	-4.1	x
O=C(COc1ccccc1Cl)Nc1ccc(N2CCCC2)cc1	-2.1	11	-10	0.3	-8%	4	-2.2	-3.2
CC1CCCC(NC(=O)c2ccc(F)c(S(=O)(=O)N3CCOCC3)c2)C1C (stereo not drawn)	-4.7	-7	-3	-0.2	-2%	0	-3.1	0.0
Cc1ccc(S(=O)(=O)C(CCC(=O)c2ccc(Cl)cc2)C(N)=O)cc1 (stereo not drawn)	-0.9	-1	22	0.1	1%	-8	1.0	x
O=C(Nc1nnc(CCc2ccccc2)s1)c1cccc(F)c1	0.6	-7	42	-3.4	-9%	x	3.2	-3.0
CCc1n[nH]c2c1/C(=N/O)CCC2	-0.1	6	-8	-0.9	-1%	-5	0.2	x
S=C(Nc1ccccc1)N1CCC(C2CCN(C(=S)Nc3ccccc3)CC2)CC1	0.7	5	7	-1.1	x	-1	-1.5	x
O=C(CN1C(=O)NC2(CCCC2)C1=O)Nc1ccccc1-c1ccccc1	1.1	-14	-1	1.1	1%	6	8.2	-2.6
COc1cccc(CN(C)C(=O)C2CCN(S(=O)(=O)c3cccs3)CC2)c1OC	-4.7	x	x	-0.3	-7%	-3	x	0.7
COc1ccc(-c2noc(-c3ccccc3C(=O)N3CCOCC3)n2)cc1	-5.2	-13	-3	-0.2	u	-6	1.0	x
C=CCC1(CC=C)CCCN1C(=O)Cn1nnnc1CN(C)C(C)C	4.8	-4	-8	-0.6	x	0	3.4	-0.4
CCCCn1cnc2c(cnn2-c2ccc(F)cc2)c1=O	2.4	0	u	0.1	28%	-2	-2.1	x
Cc1nnc(SCC(=O)Nc2ncc(Cl)cc2Cl)n1Cc1ccccc1	2.4	5	-3	-0.3	3%	-4	5.9	x
CCOc1ccc(-n2c(SCc3ccc(C#N)cc3)nnc2-c2cccnc2)cc1	0.7	12	10	1.3	-5%	2	-1.6	x
CCCCNCC(=O)Nc1ccc(NC(=O)CNCCCC)cc1	-1.7	-2	-6	0.0	-2%	x	-4.4	x
CCOC(=O)C1CCCN(CC(=O)N(C)c2c(N)n(Cc3ccccc3)c(=O)[nH]c2=O)C1 (stereo not drawn)	2.4	x	x	1.0	x	3	x	5.7
Cc1cccc(NC(=O)CSc2nnc(CCNC(=O)OC(C)(C)C)o2)c1C	-2.1	-20	-1	0.9	-11%	x	-1.9	-4.6
Cc1sc2nc(CN3CCOCC3)nc(Oc3ccc(NC(=O)c4ccco4)cc3)c2c1C	-2.0	28	14	-0.4	-1%	2	0.9	x
CC(C)C(=O)NC(c1ccc(N(C)C)cc1)c1c(O)ccc2ccccc12 (stereo not drawn)	27*	4	7	-0.2	u	-1	-2.9	x
Cc1ccc2c(CC(=O)OCc3csc(C)n3)coc2c1	1.2	-9	11	-0.3	11%	x	1.5	x
CCC1CCCCN1CCCNC(=O)Cn1nc(-c2ccccc2)ccc1=O (stereo not drawn)	-2.9	-8	2	0.1	-1%	-7	-7.8	u
Cc1ccc(CN2CC[C@H]3C=CCc4cccc(c43)C2)cc1	0.8	x	x	0.4	x	0	x	4.1
Cc1cc(C)nc(NS(=O)(=O)c2ccc(NC(=O)c3ccccc3[N+](=O)[O-])cc2)n1	0.2	-16	8	-0.4	x	x	2.8	-5.3
CCCn1nnc(NC(=O)c2ccc(-c3ccccc3)cc2)n1	1.6	5	-7	-5.4	-10%	-3	-0.7	-43
CCOC(=O)c1ccc(CSc2nnc(N)s2)cc1	1.4	-3	11	-4.5	-3%	-2	6.0	x
Cc1cc(-c2nc3cccnc3s2)ccc1NS(=O)(=O)c1cccs1	-8.8	-24	-3	-10	x	-3	92*	-10
Cc1cc(NCCCn2ccnc2)n2nc(-c3ccc(F)cc3)cc2n1	4.1	-1	21	0.1	3%	4	-1.7	7.5
CCNc1nc(-c2ccc(Cl)cc2)cs1	2.5	-3	3	0.7	-5%	4	-1.4	x
O=C(O)CSc1c2c(nc3cc(C(=O)N4CCCC4)ccc13)CCCC2	-3.4	-2	1	0.0	5%	-7	3.0	0.4

Next section.
compound	LANA-H2A inh	T cruzi repl	Calb FLC	Bfl-1 A1 inh	Vif A3G	Beta apoptosis	RanGTP-Imp inh	MLL AF4-AF9 inh
COc1ccc(CC(=O)N[C@@H](C)C(=O)N2CCC3(CC2)NCCc2[nH]cnc23)cc1	2.7	9	0	0.9	x	x	5.8	0.8
COC(=O)c1cn(-c2ccccc2)nc1-c1ccncc1	-3.3	0	0	1.3	22%	-1	4.0	x
O=C(CSc1nnc(COc2ccc(Cl)cc2)o1)OC1CCCCC1	0.8	-11	5	-1.7	-2%	1	-1.6	x
CC(C)CC1c2[nH]c3ccccc3c2CCN1C(=O)c1cnccn1 (stereo not drawn)	-3.9	-10	24	-2.1	-6%	-6	4.0	0.2
CSCCC(NS(=O)(=O)c1ccccc1)C(=O)OCc1nc2ccsc2c(=O)[nH]1 (stereo not drawn)	1.5	-6	5	0.2	6%	3	u	-12
CCOc1ccc(CN(C)c2nc(-c3cccnc3)nc3ccccc23)cc1OC	-3.8	27	0	-0.3	x	-1	6.0	11
CCOc1ccc(C(=O)COC(=O)c2nn(CC)c(=O)c3ccccc23)cc1	13*	x	x	-0.9	x	-1	x	1.2
O=C1CC(c2ccco2)Sc2nc3ccccc3n21 (stereo not drawn)	0.1	13	-8	-0.2	7%	-5	2.3	x
COc1ccc(CN(C)CC(=O)NC(=O)NCc2ccccc2)c(OC)c1	6.5	-4	2	-0.1	x	-9	-2.2	x
COc1ccc(-n2nc([N+](=O)[O-])c(=NCCc3cccc(C)c3)n2O)cc1	-0.8	63*	0	0.0	7%	-4	-1.4	2.6
CCN(c1cccc(C)c1)C1C(=O)c2ccccc2N1C(C)=O (stereo not drawn)	3.3	6	3	-0.1	3%	x	3.4	7.0
Cc1ccc(OCCOCCNC(C)C)c(Br)c1	-3.5	14	-13	-0.1	9%	-4	2.8	x
Cc1ccc(NC(=O)CSc2ncc3ccccn23)cc1	5.9	4	-1	0.8	6%	-9	3.2	-1.0
Cc1cccc(NC(=S)Nc2ccccn2)c1	-4.5	-21	-20	-0.7	-3%	-6	3.1	0.5
